BJeLR lethal = kills HRASV12-expressing BJeLR cells | inhibition, % (no concentration beside the values) | 300,000 compounds, 0.17% hits | BJeLR (HRASV12) viability, CellTiter-Glo ATP luminescence, 48 h; reference of the scale not given here;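 active = replicate mean above 50%; inconclusive = above 50% but judged a plate artefact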;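 also: 50 nL library stock added to about 25 µL; numbers are from one replicate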
PrP UTR inh = inhibition of PrP 5' UTR reporter expression. cell-based PrP 5' UTR mRNA reporter, plate reader. inhibition, % (concentration not given with the values). 340,000 compounds, 0.35% hits. AID 488862;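 active = every replicate at 50% or more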;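 also: 0 = median of the neutral control wells; tested in H4 reporter cells; numbers are from one replicate; inactives centre near -14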
ugtP null kill = compounds lethal to S. aureus RN4220 ugtP deletion mutant. OD600 growth, 16 h; some inactives read as strong as hits. growth inhibition, % (no concentration beside the values). 330,000 compounds, 0.54% hits;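 active = z-score under -3 and OD600 up to 0.15 on both plates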;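 also: plate controls were untreated wells for no effect and antibiotic for full effect; wells of about 80 µL received 100 nL stock; the first replicate is given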
Bead autofluor = counter-screen for toxin protease inhibitors: compound fluorescence. compound autofluorescence counterscreen, microsphere flow cytometry; stronger effect = higher value. fluorescence intensity (test concentration not listed). 360,000 compounds, 3.1% hits. AID 624483;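 active = at least 3 SD above the mean of all compounds, about 16000 in these data; inconclusive = too few beads counted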;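 also: 100 nL of 1 mM stock went into each well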
RN4220 kill = S. aureus RN4220 growth inhibition. inhibition, % (test concentration not listed). OD600, 16 h. 330,000 compounds, 0.33% hits. AID 1259311;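 active = z-score of -3 or lower and OD600 up to 0.18 on both plates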;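 also: plate controls were untreated cells for no effect and reference antibiotic for full effect; stock transfer was 100 nL into about 80 µL; one replicate is shown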
Mtb hypoxia inh = reduces hypoxia-regulated biosensor signal in M. tuberculosis | AID 1159583 | 300,000 compounds, 0.1% hits | M. tuberculosis hypoxia-regulated fluorescent reporter, fluorescence | fluorescence inhibition, % (no concentration beside the values);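 active = 35 to 45% if threefold the growth effect, above 45% if 1.5-fold the growth effect; inactive = the rest, general growth blockers included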;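 also: wells of about 50 µL received 100 nL stock; 0% = vehicle wells and 100% = reference inhibitor wells; whole bacteria with a GFP reporter of the hypoxia response; strong numbers were not always called active; many hits fall short of the cut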
Mtb hypoxia inh growth = second read-out of Mtb hypoxia inh, no call of its own (marks repeat the call); growth inhibition, %; measured here: M. tuberculosis growth (absorbance);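 0% = vehicle and 100% = reference antibiotic; read after six days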
Active calls of the source: *; ? = inconclusive; / = not tested or not shown.

A first look (five entries):
SMILES | BJeLR lethal | PrP UTR inh | ugtP null kill | Bead autofluor | RN4220 kill | Mtb hypoxia inh | Mtb hypoxia inh growth
Cc1ccc(S(=O)(=O)N(C)C)cc1NC(=O)C1Cc2ccccc2CN1C(=O)c1ccco1 (configuration not stated) | -5 | 7 | -1 | 3141 | 4.4 | -7 | -10
CC1CN(C(=O)C=Cc2ccccc2[N+](=O)[O-])CC(C)O1 (configuration not stated) | / | / | -6 | / | -0.9 | 0 | 3
CCNC(=O)COC(=O)/C=C/c1c(C)nn(Cc2cccc(OC)c2)c1Cl | 11 | -35 | 7 | 4452 | 3.9 | -5 | 12
Cc1nc2ccccn2c1C(=O)NNC(=S)Nc1ccc(Cl)cc1 | -1 | -23 | 6 | 9453 | 2.3 | -1 | 12
Cc1oc(C)c2c(=O)ccc3c(c12)OC(N)=C(C#N)C3c1ccc(F)cc1 (configuration not stated) | -2 | 1 | -8 | 2757 | -1.2 | / | /

This part in full (from the top)
SMILES | BJeLR lethal | PrP UTR inh | ugtP null kill | Bead autofluor | RN4220 kill | Mtb hypoxia inh | Mtb hypoxia inh growth
Cc1ccc(S(=O)(=O)N(C)C)cc1NC(=O)C1Cc2ccccc2CN1C(=O)c1ccco1 (configuration not stated) | -5 | 7 | -1 | 3141 | 4.4 | -7 | -10
CC1CN(C(=O)C=Cc2ccccc2[N+](=O)[O-])CC(C)O1 (configuration not stated) | / | / | -6 | / | -0.9 | 0 | 3
CCNC(=O)COC(=O)/C=C/c1c(C)nn(Cc2cccc(OC)c2)c1Cl | 11 | -35 | 7 | 4452 | 3.9 | -5 | 12
Cc1nc2ccccn2c1C(=O)NNC(=S)Nc1ccc(Cl)cc1 | -1 | -23 | 6 | 9453 | 2.3 | -1 | 12
Cc1oc(C)c2c(=O)ccc3c(c12)OC(N)=C(C#N)C3c1ccc(F)cc1 (configuration not stated) | -2 | 1 | -8 | 2757 | -1.2 | / | /
COc1cccc(N=Cc2ccc(O)cc2O)c1 | -4 | -3 | -7 | 10898 | 3.3 | 4 | -2
CC(=O)c1ccccc1NS(=O)(=O)c1ccccc1Cl | -4 | -12 | -4 | 2514 | 7.4 | 0 | -1
Cc1ccnc(NS(=O)(=O)c2ccc(NC(=O)c3ccc([N+](=O)[O-])s3)cc2)n1 | 2 | -28 | 16 | 2511 | 9.6 | / | /
O=C(NC(=S)Nc1ccccc1)c1cc(-c2ccccc2)nc2ccccc12 | -4 | -15 | -2 | 4259 | 0.8 | / | /
Cc1ccccc1NC(=O)c1c(C)nn(-c2ccccc2)c1Cl | -7 | -9 | -11 | 7186 | 2.8 | 5 | 0
COc1ccc2sc3c(=O)[nH]c4ccccc4c3c2c1 | 12 | 30 | -1 | 2748 | 0.5 | / | /
CC(=NNc1ccc(S(=O)(=O)N2CCCCC2)cn1)c1ccc(O)cc1 | / | / | 0 | / | 5.6 | 11 | -2
CC(=O)Oc1c(S(=O)(=O)c2ccc(C)cc2)c(C)nn1C(C)(C)C | -5 | -13 | 7 | 2592 | 7.5 | / | /
COc1ccc(/C=C/c2ccc3cccc(O)c3n2)cc1Br | 12 | -26 | 5 | 2933 | 15 | 9 | -7
Cn1c(=O)c(C(=O)NC2CCCCCCC2)c(O)c2ccccc21 | -4 | -45 | 9 | 8524 | 0.1 | 4 | 6
COc1c(NC=O)c2c(c([N+](=O)[O-])c1OC)C(=O)OC2 | / | -6 | -6 | 3807 | -0.2 | -2 | 6
CCOC(=O)C1=C(COC(=O)C(CC)c2ccccc2)NC(=O)NC1C (configuration not stated) | / | -12 | 5 | ? | 5.5 | 7 | 7
Cc1ccc(S(=O)(=O)N2C[C@@H]3[C@H]4CC[C@H](C4)[C@@H]3[C@@H](C)[C@@H]2c2cn(Cc3ccccc3)c3ncccc23)cc1 | / | -18 | 34 | 3769 | -2.0 | -9 | -11
CCCc1c(C(=O)N/N=C(\C)CCc2ccc(OC)cc2)nnn1-c1nonc1N | 4 | -30 | / | 5447 | / | / | /
O=C(Nc1ccccc1)c1cc(Cl)nc2ccccc12 | 3 | -26 | -2 | 2241 | -1.6 | -8 | 5
Cc1cccc(C)c1NC(=O)c1cnn(-c2ccccc2)c1C | 9 | 19 | -1 | 3237 | 0.8 | 13 | 2
C=C(C)Cn1c(SCC(=O)N/N=C/c2c(O)ccc3ccccc23)nc2ccccc2c1=O | 4 | -34 | / | 2514 | / | / | /
CC1=C(C(=O)OC2CCCCC2)C(c2cccnc2)n2nnnc2N1 (configuration not stated) | 0 | -16 | / | 6547 | / | / | /
CN1CCN(S(=O)(=O)c2ccc(Br)c3nsnc23)CC1 | 7 | -4 | 8 | 13503 | 3.5 | 1 | 6
Cc1cccc(OCCCC(=O)NC2CCCCC2)c1 | -1 | -30 | 8 | 3747 | 1.0 | 11 | 9
Later entries:
SMILES | BJeLR lethal | PrP UTR inh | ugtP null kill | Bead autofluor | RN4220 kill | Mtb hypoxia inh | Mtb hypoxia inh growth
CCN(CC)N=Nc1ccc(C(=O)O)cc1 | -3 | -16 | 0 | 2292 | -0.4 | -13 | 6
O=C(Cc1c(F)cccc1Cl)Nc1cc(S(=O)(=O)N2CCCCC2)ccc1N1CCOCC1 | -2 | 14 | 6 | 4295 | 1.5 | 12 | -9
O=[N+]([O-])c1ccc(C(O)CN2CCOCC2)cc1 (configuration not stated) | -6 | -7 | -1 | 3939 | 4.2 | 13 | 2
CCc1cc2c(Nc3ccccc3O)nc(C)nc2s1 | 13 | -24 | 2 | 4063 | 1.7 | 11 | 3
N#CNC(N)=Nc1cccc(Cl)c1 | -1 | -14 | -22 | 3512 | 3.0 | -7 | 6
CC(=O)Nc1ccc(Nc2ncnc3ccccc23)cc1 | 2 | / | 10 | / | 4.7 | 9 | -8
Oc1cccc(C=NNc2cccc3cccnc23)c1 | / | / | -13 | / | 9.6 | 0 | -2
Cc1[nH]c(=O)[nH]c(=O)c1NC(=O)c1ccc(OC(C)C)cc1 | -2 | -16 | 6 | 4731 | 7.7 | 11 | 11
COc1ccc(CCNC(=O)COC(=O)CSc2ccc([N+](=O)[O-])cc2)cc1OC | / | -11 | 2 | / | 3.3 | 4 | 0
COc1ccc(Br)cc1CN(C)CC(=O)NCc1ccc(F)cc1 | -2 | -16 | 22 | 4321 | -1.8 | 7 | 10
COc1ccc(-c2noc(CN3CCOCC3)n2)cc1OC | 2 | -7 | 11 | 3704 | 3.4 | / | /
CC1CCCC(NC(=O)COC(=O)CCC(=O)c2cccs2)C1C (configuration not stated) | / | -23 | 5 | 3565 | 1.4 | 1 | 14
Cc1ccccc1NC(=S)Nc1ccc(Br)cc1 | -7 | 5 | -14 | 2730 | -1.0 | 6 | -4
Cc1n[nH]c(C)c1N=Nc1ccc(Br)cc1 | 7 | -50 | 59 | 5014 | 18 | 14 | 15
OC(CNC1CCCCC1)C(F)(F)F (configuration not stated) | -12 | -22 | 4 | 3541 | 4.4 | 1 | 1
COc1ccc(-n2nc3c(c2NC(=O)Cc2cccc(C)c2)CS(=O)C3)cc1 (configuration not stated) | -8 | -21 | 13 | 5352 | 7.5 | -4 | -3
CN(C)c1ccc(C=NNC(=S)NCc2ccco2)cc1 | / | / | 0 | / | 8.0 | 11 | 12
COc1ccc(NC(=S)NC(=NCS(=O)(=O)c2ccccc2)c2ccccc2)cc1 | / | / | 8 | / | 6.9 | 4 | -6
CCOc1ccc(C(C)=O)cc1CSc1nnc(-c2ccncc2)n1CCOC | -18 | 31 | 2 | 4430 | 2.0 | 11 | -1
COc1cc(C=C2C(=O)c3ccccc3C2=O)cc(OC)c1 | -3 | -13 | / | 4282 | / | / | /
CN(C)c1nnnn1-c1ccc(Cl)cc1 | -4 | -18 | 2 | 2010 | 4.1 | 3 | 4
CN(C)c1ccc(CSc2ccccc2)cc1 | / | -42 | 7 | 3599 | 6.2 | 3 | 9
CCOc1ccc(S(=O)(=O)N(C)CC(=O)NCc2ccccn2)cc1Cl | 3 | -19 | 2 | 3682 | 2.9 | 7 | -4
Cc1cc(Cl)ccc1NS(=O)(=O)c1c(C)[nH]c(=O)[nH]c1=O | 9 | -42 | 8 | 3569 | 1.3 | 0 | 5
CSCCC(NS(=O)(=O)c1ccc2c(c1)OCCO2)C(=O)N(C)Cc1ccccc1F (configuration not stated) | / | -16 | 6 | 8898 | 4.2 | -7 | 0
Following part
SMILES | BJeLR lethal | PrP UTR inh | ugtP null kill | Bead autofluor | RN4220 kill | Mtb hypoxia inh | Mtb hypoxia inh growth
CC(O)[C@H]1CN=C(N)N1CCc1cc(C(F)(F)F)cc(C(F)(F)F)c1 (some centres not stated) | 1 | -5 | / | 3690 | / | / | /
Cc1ccc(Nc2ccccc2)nn1 | -3 | -6 | 1 | 3158 | 7.7 | -13 | -4
CC(=O)c1cccc(NC(=O)CSc2nc(N3CCCCC3)nc(N3CCCCC3)n2)c1 | -11 | -15 | 4 | 3999 | 0.3 | 7 | -4
CCC(C)NC(=O)CCS(=O)(=O)c1ccc2c(c1)n(C)c(=O)c(=O)n2C (configuration not stated) | 9 | 1 | 4 | 3967 | 4.4 | / | /
COc1ccc(-c2cc(C)no2)cc1S(=O)(=O)N1CCCCC1 | 13 | -4 | 1 | 4417 | 5.1 | 5 | 4
Cc1ccc(NC(=O)C(=O)NCc2ccc(C=NNC(=O)c3c(C)nc4cc(C)ccn34)o2)cc1 | / | / | 0 | / | 4.7 | 8 | 1
C=C(C)CNC(=O)c1ccc2nc(Cc3ccc(OC)cc3)oc2c1 | 12 | -72 | 7 | 3237 | -3.9 | 2 | 14
O=S(=O)(c1cccc(C(F)(F)F)c1)N1CCC(CO)(CCCc2ccccc2)CC1 | -7 | -29 | -20 | 3530 | 8.0 | -3 | 2
CC(=O)C1=C(NC(=O)c2ccccc2F)C[C@@H]2[C@H]1C2(C)C | -5 | -16 | 8 | 5960 | 2.7 | / | /
Cc1nn(-c2ccccc2)c(N2CCCC2)c1C=NNc1ccc(S(=O)(=O)Nc2ccccc2)cc1[N+](=O)[O-] | / | / | -28 | / | 5.5 | 22 | -4
CCN(CC)S(=O)(=O)c1cc(NC(=O)C2CC(=O)N(Cc3ccccc3)C2)ccc1Cl (configuration not stated) | / | 1 | 1 | 8277 | 2.4 | 2 | -1
CCN=C1SC(C(=O)Nc2cccc(C(=O)O)c2)CC(=O)N1CC (configuration not stated) | -8 | -22 | 5 | 8487 | 4.0 | 13 | -1
Cc1ccc(-c2ccc(S(=O)(=O)N3CC(C)OC(C)C3)cc2)cc1 (configuration not stated) | -8 | -8 | 5 | 5678 | 5.1 | -1 | 2
COc1ccccc1NS(=O)(=O)NC(=O)c1cn(C)c2ccccc12 | 1 | -19 | 4 | 5313 | 4.0 | 3 | 1
Cc1cc(N2CCCC2)ccc1NC(=O)CN1C(=O)NC2(CCCCC2)C1=O | 7 | -13 | 11 | 4417 | 0.4 | 4 | 0
Cc1sc(CO)c(Sc2ccccc2)c1C(=O)O | -1 | / | 9 | / | 2.4 | 9 | 3
CC(=O)N1CCCc2cc(S(=O)(=O)N3CCN(c4ccccn4)CC3)ccc21 | 5 | -4 | 3 | 4678 | -0.6 | / | /
COc1ccc(CNC(=O)CN2CCN(c3ccccc3)CC2)cc1 | 4 | -4 | 4 | 3076 | -0.3 | 2 | -3
CC(C)c1ccc2nc(N)sc2c1 | -1 | -90 | 5 | 4256 | 8.0 | 11 | 5
Cc1ccc(-c2nnc(N3CCN(C(=O)Cn4c(=O)n(C)c5ccccc54)CC3)c3ccccc23)cc1 | 4 | -3 | 14 | 7989 | 27 | 5 | 16
C[N+](C)(C)CC(=O)NN=Cc1c2ccccc2cc2ccccc12 | / | / | 6 | / | 1.6 | 5 | 8
O=C1NCC(CN(c2ccccc2)c2ccccc2)O1 (configuration not stated) | 2 | -5 | 3 | 19299* | 5.9 | 10 | 8

Random excerpt: 3 compounds from above.
SMILES | BJeLR lethal | PrP UTR inh | ugtP null kill | Bead autofluor | RN4220 kill | Mtb hypoxia inh | Mtb hypoxia inh growth
CCN(CC)S(=O)(=O)c1cc(NC(=O)C2CC(=O)N(Cc3ccccc3)C2)ccc1Cl (configuration not stated) | / | 1 | 1 | 8277 | 2.4 | 2 | -1
CCOc1ccc(S(=O)(=O)N(C)CC(=O)NCc2ccccn2)cc1Cl | 3 | -19 | 2 | 3682 | 2.9 | 7 | -4
Cc1ccc(-c2nnc(N3CCN(C(=O)Cn4c(=O)n(C)c5ccccc54)CC3)c3ccccc23)cc1 | 4 | -3 | 14 | 7989 | 27 | 5 | 16

Compounds were not picked by outcome, and some 4.1% of all compounds hit somewhere here.
